YjeE inh: inhibitors of E. coli YjeE (TsaE); P0AF67; purified YjeE, fluorescence polarisation of a bound ADP probe; Potency, µM; actives 0.05% (n = 71,000); AID 605; active = well fitted falling curve; inconclusive = weaker or top-dose-only fall, or a rising curve; inactive = flat or poorly fitted curve;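 also: top concentration of the series not given in the record; excess ADP was the control for the full effect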
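Fluorescence polarization of a BODIPY Texas Red–ADP probe (2 uM) bound to purified YjeE (10 uM) was read after 15 min room-temperature incubation with compounds. Loss of polarization marks inhibitors; ADP serves as titrated control.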
PK Bst: alters activity of Bacillus stearothermophilus pyruvate kinase. actives 1.2% (n = 51,000). partly purified Bacillus stearothermophilus pyruvate kinase, luminescence ATP production; ribose 5-phosphate activator present at AC10. Potency, µM; in the data active means potency below about 11 µM; inconclusive means mostly about 12 µM to 25 µM; inactive means weaker than that;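 the screen sought inhibitors and activators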;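 also: potency is read from the fitted curve at half-maximal effect; scaled between full activation by ribose 5 phosphate and full inhibition by luteolin; about four in five hits inhibit and the cells do not say which; series up to 57 µM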
* marks the source's active call; other numbers are inactive results; i = inactive; ? = inconclusive; · = not tested or not shown; & = joins results of further samples.

Molecule,YjeE inh,PK Bst
COC(=O)C(C)Oc1cc(C)cc2oc(=O)c3c(c12)CCCC3 (centres undefined),i,>57
C[C@@]12CCC(=O)C=C1C=C[C@H]1[C@H]3CC[C@](O)(CCC(=O)O)[C@]3(C)CC[C@@H]12,i,·
COc1ccc(OC)c([C@@H](O)[C@H](C)NC(C)(C)C)c1,·,>26
O=C1CC(N2CC=C(c3ccccc3)CC2)C(=O)N1c1ccc(F)cc1 (centres undefined),i,·
CCOC(=O)C1=C(N)Oc2cc(C)oc(=O)c2C12C(=O)N1c3c(cccc32)C(C)CC1(C)C (centres undefined),i,>57
c1ccc2nc(N3CCNCC3)ccc2c1,i,·
O=C1NC(=O)C(CCc2ccncc2)(C2CCCCC2)C(=O)N1,i,>57
COC(=O)CC1=C(C(=O)OC)C2(C(=O)N(C)c3ccccc32)C(C#N)=C(N)O1 (centres undefined),i,>57
O=[N+]([O-])c1ccccc1CCl,i,·
O=C(NC(Cc1ccccc1)C(=O)N1CCC2(CC1)OCCO2)C1CCCCC1 (centres undefined),i,>57
Cn1c[n+](C)cc1C(O)c1ccccc1 (centres undefined),i,>57
Oc1ccc(CCNCc2cc3c(cc2Br)OCO3)cc1,i,·
c1ccc(CCN2CCCCCC2)nc1,i,·
O=C(COc1ccccc1)N1CCN(Cc2c[nH]c3ccccc23)CC1,i,·
Cc1ccc2c(C)cccc2c1,i,·
CCCCOCCOP(=O)(OCCOCCCC)OCCOCCCC,i,·
CN1CC[C@@]2(CCCN(C(=O)c3ccco3)C2)C1,i,·
CC1CCCC(C2(O)C(=O)Nc3ccccc32)C1=O (centres undefined),i,>57
CC1CN(O)C2CCc3nonc3C12O (centres undefined),i,>57
c1ccc(N2CC[C@@]3(CCCNC3)C2)nc1,i,·
COc1ccc(OCC(=O)N2CCN(Cc3c[nH]c4ccccc34)CC2)cc1,i,>57
CC(C)c1ccc(OCC(=O)N2CCN(C)CC2)c(Br)c1,i,>57
CC(=O)/C=C/c1ccccc1,i,·
C[C@@H]1O[C@@H](O[C@H]2C[C@@H](O)[C@]3(CO)[C@@H]4[C@@H](O)C[C@]5(C)[C@H](C6=CC(=O)OC6)CC[C@@]5(O)[C@H]4CC[C@@]3(O)C2)[C@H](O)[C@H](O)[C@@H]1O,i,·
CN1C(=O)C(Cc2c[nH]c3ccccc23)C(=O)N(C)C1=O,i,>57
CCOc1ccc(-n2c(O)c(C=NCCN(CC)CC)c(=O)[nH]c2=O)cc1,i,·
OC12Oc3ccccc3C=C1N1CCC2CC1 (centres undefined),i,·
CN1CCN(C(=O)OC2c3nccnc3C(=O)N2c2ccc(Cl)cn2)CC1 (centres undefined),i,>57&>26
Cc1cccc(C#N)c1,i,·
Cc1ccc(OP(=O)(Oc2ccc(C)cc2)N2C=Cc3ccccc3[C@H]2C#N)cc1,i,·
COc1ccc(CCn2c(O)c(C=NC3CC3)c(=O)[nH]c2=O)cc1OC,i,>57
COC(=O)CSC1=NP(=S)(SCC(=O)OC)N2CCCC2=C1C#N (centres undefined),i,>57
Cn1c(=O)cc(OCC(=O)N2CCN(C3CCCCC3)CC2)c2ccccc21,i,·
O=C(O)[C@@H]1[C@H](C(=O)O)[C@]2(Cl)C(Cl)=C(Cl)[C@@]1(Cl)C2(Cl)Cl,i,·
CC12CN3CC(C)(CN(C1)C31CCSCC1)C2=O,i,>57
ClCBr,i,·
O=C(C1CCC(=O)N1Cc1ccc(F)cc1)N1CCC2(CC1)OCCO2 (centres undefined),i,>57
CCCC(C)C1(CC)C(=O)NC(=Nc2ccccc2OC)NC1=O (centres undefined),i,>57
O=C(Nc1cccc(F)c1)N1CC[C@@]2(CCCN(C(=O)Oc3ccccc3)C2)C1,i,·
C#CCO,i,·
CC(=NCC1CCCO1)c1c(O)n(C)c(=O)n(C)c1=O (centres undefined),i,>57
CCCCOc1ccc(CN2CCN(CCO)CC2)cc1,i,·
COc1ccc(CN2CCNCC2)c(OC)c1OC,i,·
Cn1ccnc1P(=S)(c1nccn1C)c1nccn1C,i,>57
CCCCn1c(O)c(C(C)=NC(Cc2c[nH]c3ccccc23)C(=O)OC)c(=O)[nH]c1=O (centres undefined),i,>57
Clc1cc(Cl)c(-c2cc(Cl)c(Cl)cc2Cl)cc1Cl,i,·
CN(C)[C@@H]1C(=O)C(C(N)=O)=C(O)[C@@]2(O)C(=O)C3=C(O)c4c(O)cccc4[C@@](C)(O)[C@H]3C[C@@H]12,·,?
O=c1[nH]c(=O)n(CCC2=CCCCC2)c(O)c1C=NCCN1CCNCC1,i,>57
CC(C)(C)c1ccc(O)c(CN2CCN(c3ccccc3)CC2)c1,i,>57
CCCNC(=O)c1c(N)n(Cc2ccc3c(c2)OCO3)c2nc3ccccc3nc12,i,>57

More records:
Molecule,YjeE inh,PK Bst
NCC#Cc1ccccc1,i,·
Oc1ccc([C@H](O)[C@@H]2CCCCN2)cc1O,i,·
CCOC(=O)C1=C(C)OC(N)=C(C(=O)OCC)C12C(=O)Nc1ccc(Br)cc12 (centres undefined),i,>57
Cc1ccccc1N1C(=O)CC(=O)NC1=O,i,>57
N#CSCSC#N,i,·
C[C@@H](Cc1ccc(Cl)cc1Cl)NO,i,·
Oc1ccccc1Cl,i,·
O=C(NCc1cccnc1)NC1CCCCC1,i,>57
Cc1ccc(S(=O)(=O)NC(CC(=O)N2CCC3(CC2)OCCO3)c2ccco2)cc1 (centres undefined),i,>57
CCCCCP(=O)(O)c1ccccc1,i,·
O=S(=O)(Cl)c1ccccc1,i,·
Cc1nn(CCC#N)c2c1P(=S)(N1CCCC1)OC(c1ccc(F)cc1)=N2 (centres undefined),i,>57
Cc1nn(-c2ccccc2)c(Cl)c1C1C(C#N)=C(N)Oc2c1c(=O)oc1ccccc21 (centres undefined),i,>57
CCOC(=O)C(O)(c1ccc(NC(=O)c2ccco2)c(OC)c1)C(F)(F)F (centres undefined),i,>57
CCOC(=O)c1c(N)n(CCCOC(=O)c2ccco2)c2nc3ccccc3nc12,i,i
C[C@H](N)CN1CCc2ccc(Br)cc21,i,·
c1cncc(CNCCN2CCNCC2)c1,i,·
Cc1ccc2nc(-c3ccncc3)cc(C(=O)N3CCC4(CC3)OCCO4)c2c1,i,>57
O=C(c1cnccn1)N1CCC2(CC1)CN(Cc1ccncc1)C2,i,·
CCN(CC)c1ccc(CC2C(=O)N(C)C(=O)N(C)C2=O)cc1,?,·
NCCc1ccc(S(=O)(=O)F)cc1,i,·
CN(C)[C@@H]1C(=O)C(C(N)=O)=C(O)[C@]2(O)C(=O)C3=C(O)c4c(O)ccc(Cl)c4[C@](C)(O)[C@H]3C[C@@H]12,i,·
CNC(=O)[C@@H]1C[C@H]1[C@@H](NP(=O)(c1ccccc1)c1ccccc1)c1ccccc1,i,·
CC[C@@H]1CN2CCc3cc(OC)c(OC)cc3[C@H]2C[C@@H]1C[C@@H]1NCCc2cc(O)c(OC)cc21,i,·
Cc1ccc2cccc(OC(=O)N3CCCC3)c2n1,i,?

The list goes on, starting with the last 3 of the part before.
Molecule,YjeE inh,PK Bst
CNC(=O)[C@@H]1C[C@H]1[C@@H](NP(=O)(c1ccccc1)c1ccccc1)c1ccccc1,i,·
CC[C@@H]1CN2CCc3cc(OC)c(OC)cc3[C@H]2C[C@@H]1C[C@@H]1NCCc2cc(O)c(OC)cc21,i,·
Cc1ccc2cccc(OC(=O)N3CCCC3)c2n1,i,?
CCCN1CCC[C@@H]2Cc3[nH]ncc3C[C@H]21,i,·
CCC(C)N1C(=O)NC(=O)C2(Cc3cc(C)ccc3N(C)C2)C1=O (centres undefined),i,>57
CC(=NCCC1=CCCCC1)c1c(O)[nH]c(=O)[nH]c1=O,i,>57
CC1N(O)C2CCCCCC2N1O (centres undefined),i,>57
C[C@H](CC(C#N)(c1ccccc1)c1ccccc1)N1CCCCC1,i,·
OCC1(CO)COC(c2cccnc2)N1 (centres undefined),i,>57
Cc1ccc2c(c1)CC1(CN2C)C(=O)NC(=O)N(c2cc(C)ccc2C)C1=O (centres undefined),i,>57
CC(C)c1ccc(O)c(CN2CCN(c3ccccc3)CC2)c1,i,>57
CCOC(=O)C1SC2(C(F)(F)F)CC1(O)c1c(C)cc(C)nc1O2 (centres undefined),i,>57
C[C@@]12CC[C@H](O)C[C@@H]1CC[C@@H]1[C@@H]2CC[C@@]2(C)[C@@H](C3=CC(=O)OC3)[C@H](O)C[C@]12O,i,·
CCOc1cc(C=O)ccc1O,i,·
CC1(C)N=C(N)N=C(N)N1c1cccc(C(=O)Nc2ccc(S(=O)(=O)F)cc2)c1,i,·
CN1CCN(c2ccc(C(N)=O)cc2N)CC1,i,>57
CCOC(=O)N(c1ccccc1)P1(=S)OCCO1,i,>57
C[C@H](NC(C)(C)C)C(=O)c1cccc(Cl)c1,i,·
C=CCCN1C[C@@H]2C[C@H](C1)c1cccc(=O)n1C2,i,·
CCCCOc1ccc(CC2C(=O)N(C)C(=O)N(C)C2=O)cc1,i,·
COc1cc2c(cc1O)C[C@H]1c3c(cc(OC)c(O)c3-2)CCN1C,i,·
O=C1NCN(c2ccccc2)C12CCN(CCCOc1ccc(F)cc1)CC2,i,·
CCCCOCC1CO1 (centres undefined),i,·
Cc1ccc2c(c1)C(c1ccccc1)NCC(=O)N2 (centres undefined),i,>57
CN1C[C@H](CO)C=C2c3cccc4[nH]cc(c34)C[C@H]21,i,·
COCCOC(=O)C1=C(N)Oc2c(c(=O)oc3ccccc23)C1c1ccncc1 (centres undefined),i,>57
COC[C@H]1OC(=O)c2coc3c2[C@@]1(C)C1=C(C3=O)[C@H]2CCC(=O)[C@@]2(C)C[C@H]1OC(C)=O,i,·
CN1CCC(n2nccc2N)CC1,i,>57
CC(C)NS(=O)(=O)c1ccc(OCC(=O)N2CCN(C)CC2)cc1,i,·
O=P(O)(OP(=O)(O)c1ccccc1)c1ccccc1 (tested in a mixture with another compound),i,·
CCCC(C)(COC(N)=O)COC(=O)NC(C)C (centres undefined),i,>26
CCCN1CCC[C@H](c2cccc(C#N)c2)C1,i,·
Cl/C=C/CCl,i,·
O=C(Cn1c(=O)c(C(F)(F)F)nc2ccccc21)N1CCC2(CC1)OCCO2,i,>57
CC(C)CON=O,i,·
CN1CCc2c(c(N3CCCCC3)nc3n[nH]c(N)c23)C1,·,>26
CCCC(C)(COC(N)=O)COC(N)=O,i,·
O=C(C(Cc1ccccc1)NS(=O)(=O)c1cccc2nsnc12)N1CCC2(CC1)OCCO2 (centres undefined),i,>57
COc1cccc(-n2c(C)nc3ccccc3c2=O)c1,·,>26
C=CCn1c(O)c(C=Nc2ccc(OC)cc2C)c(=O)[nH]c1=O,i,>57
COCc1cc(C2SCC(=O)Nc3c2c(=O)[nH]n3C(C)C)ccc1OC (centres undefined),i,>57
c1ccc(N=NNc2ccccc2)cc1,i,·
Nc1nnc(CCN2CCCCC2)s1,i,>57
O=P(O)(O)COc1ccccc1O,i,?
Cc1ccc(N)c(N)c1,i,·
CCCN1CCO[C@@H]2c3cc(O)ccc3OC[C@H]21,i,·
O=C1CC(=O)N(c2ccc3c(c2)OCO3)C(=O)N1,i,>57
CN=C(SCc1ccccc1)c1c(O)n(C)c(=O)n(C)c1=O,i,>57
COc1ccc2c(c1OC)C(=O)OC2C1c2cc3c(cc2CCN1C)OCO3 (centres undefined),i,·
C[C@H]1CCCC=CC2C[C@H](O)C[C@@H]2[C@H](O)/C=C\C(=O)O1 (some centres undefined),i,·
Cc1ccc(C2N(c3cc(C)on3)C(=O)C3CCCN32)cc1 (centres undefined),i,>57
CCC(=O)O[C@@](Cc1ccccc1)(c1ccccc1)[C@@H](C)CN(C)C,i,·
CNC(=O)ON(C(=O)NC)C1N(C)C(=S)SC1(C)C (centres undefined),i,>57

New compounds follow:
Molecule,YjeE inh,PK Bst
O=C(c1cc2nc(-c3ccccc3)cc(-c3ccccc3)n2n1)N1CCC2(CC1)OCCO2,i,>57
CCOCCCN=Cc1c(O)n(Cc2ccccc2)c(=O)[nH]c1=O,i,>57
O=C(O)[C@H]1CCN1,i,·
CC(C)NP(=O)(NC(C)C)OP(=O)(NC(C)C)NC(C)C,i,·
CCOC(=O)C1=C(N)Oc2cc(C)oc(=O)c2C12C(=O)N1c3c(cc(OC)cc32)C(C)=CC1(C)C (centres undefined),i,>57
O=c1[nH]c(=O)n(Cc2ccc(F)cc2)c(O)c1C=NCCCN1CCOCC1,i,>57
CC12CN3CC(C)(CN(C1)C3c1cccnc1)C2=O (centres undefined),i,·
O=C(Cc1ccccc1)Oc1cccc(N2C(=O)CCC2=O)c1,i,·

Structural class: the compounds so far containing a COOH group
Molecule,YjeE inh,PK Bst
C[C@@]12CCC(=O)C=C1C=C[C@H]1[C@H]3CC[C@](O)(CCC(=O)O)[C@]3(C)CC[C@@H]12,i,·
O=C(O)[C@@H]1[C@H](C(=O)O)[C@]2(Cl)C(Cl)=C(Cl)[C@@]1(Cl)C2(Cl)Cl,i,·
O=C(O)[C@H]1CCN1,i,·

Screening results from PubChem BioAssay.

Some of the compounds tested; the hit share may differ from the screen's.
